Screens (PubChem BioAssay)
RanGTP-Impb inh – disruptors of Ran-importin-beta complex formation – biochemical, FRET, CFP-Ran, YFP-importin-beta, homogeneous, primary screen. cell-free CFP-Ran/YFP-importin-beta FRET ratio. inhibition, % (test concentration not listed). 300,000 tested, 1.1% active. AID 2216;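 active means most replicates above 15%; inconclusive means exactly half above 15%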;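 further: 0% = DMSO wells and 100% = Ran loaded with GDP instead of GTP; wells of about 40 µL received 100 nL stock; the first replicate is given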
T cruzi inh – T. cruzi replication inhibition | T. cruzi beta-gal in NIH3T3, luminescence, 90 h | inhibition, % (test concentration not listed) | 300,000 tested, 1.4% active | AID 1885;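 active means mean inhibition across valid replicates above about 55%, limit read from the data; inconclusive means mean below that limit but half or more replicates reach it; inactive means mean below it, under half of replicates reach it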;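 further: signal also drops with host cell toxicity which is not excluded here; 0% = plate median of DMSO wells and 100% = zero luminescence signal; higher percent means less beta-gal luminescence so fewer parasites; stock transfer was 50 nL into about 50 µL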
Vif A3G – HIV-1 Vif–A3G interaction blockers – biochemical, TR-FRET, GST-Vif 1-94, biotin-A3G peptide, dose response retest, primary screen (AID 1117319). TR-FRET GST-Vif / biotin-A3G peptide binding; higher % means a stronger effect; test concentration not given here; strong numbers were not always called active. inhibition, %; hits with a dose series show IC50 in µM. 260,000 tested, 0.57% active;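 active means above the screen mean plus three standard deviations and confirmed in dose response; inconclusive means results disagree or hit not tested in dose response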;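 further: Vif residues 1-94 fused to GST binding biotinylated APOBEC3G peptide 110-148; 0% = full assay without inhibitor and 100% = GST in place of GST-Vif; retest series ran down from 100 µM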
Calb FLC – affects C. albicans growth with fluconazole. C. albicans CaCi-2 (fluconazole-resistant clinical isolate) + fluconazole, Alamar Blue growth, 48 h. growth inhibition, % (concentration not given with the values). 300,000 tested, 0.57% active. AID 1979;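 active means most replicates above 75%; inconclusive means exactly half above 75%; inactive means most below 75%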;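 further: all wells also contain fluconazole at 8 µg/ml as a sub-toxic cotreatment; 0% = median of DMSO wells and 100% = median of geldanamycin control wells; wells of about 8 µL received 7.5 nL stock; the first replicate is given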
Bfl-1 A1 inh – inhibitors of the anti-apoptotic protein A1, read as caspase activation. MEF A1-2A-BIM cells, Caspase-Glo 3/7 luminescence, 3 h; percent of clofoctol response, vehicle zero. caspase activation, % (no concentration beside the values). 330,000 tested, 0.066% active. AID 2462;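 active means over half of replicate activation scores above 10%, or exactly half above 10 with the replicate mean above 10; inconclusive means replicate mean below 10 yet half the replicates above 10; inactive means over half of replicates below 10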;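 further: wells of about 30 µL received 50 nL stock; many hits fall short of the cut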
MLL AF4-AF9 inh – blocks AF4 peptide binding to human AF9 | AlphaScreen, biotin-AF4 peptide binding to FLAG-AF9 | inhibition, % at 10 µM | 350,000 tested, 0.47% active | AID 651704;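 active means every replicate reaching a set inhibition limit, whatever the replicate mean, cut at about 25% in these data; inconclusive means mean inhibition reaches that limit but some replicates miss it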;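 further: 0% = plate neutral control median and 100% = total signal loss; the record names both 10 and 1 µM as test concentration; the first replicate is given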
Target sequence (P42568 whole entry, looked up): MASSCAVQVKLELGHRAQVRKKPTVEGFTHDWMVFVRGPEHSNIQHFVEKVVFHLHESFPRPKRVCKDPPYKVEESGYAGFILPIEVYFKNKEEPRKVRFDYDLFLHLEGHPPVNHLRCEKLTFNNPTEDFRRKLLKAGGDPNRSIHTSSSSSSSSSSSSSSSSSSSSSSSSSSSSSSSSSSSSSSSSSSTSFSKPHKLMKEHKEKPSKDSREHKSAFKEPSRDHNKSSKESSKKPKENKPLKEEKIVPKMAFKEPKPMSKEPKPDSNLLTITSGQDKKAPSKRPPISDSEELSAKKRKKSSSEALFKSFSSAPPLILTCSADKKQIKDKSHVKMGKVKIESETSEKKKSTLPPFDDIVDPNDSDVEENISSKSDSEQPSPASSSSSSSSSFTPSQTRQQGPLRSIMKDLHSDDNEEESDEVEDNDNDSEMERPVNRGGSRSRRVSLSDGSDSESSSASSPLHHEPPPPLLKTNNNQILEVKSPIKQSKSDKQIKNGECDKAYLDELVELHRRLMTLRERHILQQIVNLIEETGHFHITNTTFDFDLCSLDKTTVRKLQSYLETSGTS
Beta cell apopt – blocks beta cell apoptosis | INS-1E cytokine-induced death, ATP luminescence, 48 h; percent of positive-control rescue, neutral wells zero | protection from apoptosis, % (concentration not given with the values) | 300,000 tested, 0.8% active;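 active means all replicates at 75% or more, or half of them and the mean; inconclusive means half reach 75% but not the mean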;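 further: 0% = cytokine-treated negative control wells and 100% = positive control rescue; higher means more ATP so stronger rescue from cytokine killing; wells of about 40 µL received 100 nL stock; the first replicate is given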
Ecoli rRNA inh – inhibitors of bacterial rRNA selective over humanized ribosomes; 350,000 tested, 1.6% active; GFP signal change (wild-type ribosome), % (no concentration beside the values); E. coli WT GFP vs humanized-ribosome RFP mutants, fluorescence, 24 h; stronger effect = lower value; DMSO median 0, no signal -100;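 active means significant combined selectivity score with lowered wild-type GFP, culture density cut under 30%, mutant RFP and density less affected; inactive means any of these conditions unmet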; further: one replicate is shown; some compounds called inactive have numbers as strong as hits
Ecoli rRNA inh OD600 – also measured in Ecoli rRNA inh; calls as there; OD600 change, %; measured here: OD600 growth;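 optical density of the mix in the first replicate; 0 = DMSO median and -100 = no signal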
Ecoli rRNA inh RFP – second read-out of Ecoli rRNA inh, no call of its own (marks repeat the call); RFP signal change, %; measured here: RFP humanized mutant strains;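 first replicate; 0 = DMSO median and -100 = no signal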
Active calls of the source: *; ? = inconclusive; . = no result given; & = joins results of further samples. Not all compounds are listed; rates above refer to the full screens.

SMILES	RanGTP-Impb inh	T cruzi inh	Vif A3G	Calb FLC	Bfl-1 A1 inh	MLL AF4-AF9 inh	Beta cell apopt	Ecoli rRNA inh	Ecoli rRNA inh OD600	Ecoli rRNA inh RFP
CC(C)NC(=O)NC(=O)COC(=O)c1ccccc1Oc1ccccc1	-0.8	-12	?	-6	-0.6	.	-3	3	7	-3.1
O=c1[nH]c(C2CCN(S(=O)(=O)c3cccc(C(F)(F)F)c3)CC2)nc2c1nnn2Cc1cccc(F)c1	-4.4	21	.	11	-0.1	-1.1	.	-8	-21	7.0
Cc1nn(Cc2c(F)c(F)c(F)c(F)c2F)c(C)c1NC(=O)c1ccc(COc2cc(Cl)ccc2Cl)cc1	-3.2	38	3%	-12	1.2	.	-1	.	.	.
O=C(COc1ccccc1)Nc1nn[nH]n1	6.8	-10	-3%	-1	0.5	.	-1	.	.	.
Cc1ccc(C)c(S(=O)(=O)Nc2cccc(-n3cnnn3)c2)c1	4.6	-4	.	12	1.3	1.1	-3	-1	6	0.9
CCCn1nc(NS(C)(=O)=O)c2cc3cccc(C)c3nc21	0.6	-9	8%	36	0.4	.	8	.	.	.
Cc1coc2c(C)c3oc(=O)c(CCC(=O)N[C@@H](C)C(=O)N[C@@H](Cc4ccccc4)C(=O)O)c(C)c3cc12	2.6	4	.	1	1.0	-3.1	3	.	.	.
Cc1ccc(S(=O)(=O)NC(=O)c2ccccc2C)cc1	0.0	-19	-5%	1	0.2	-0.5	-3	13	10	-6.3
COc1ccc(CN2CC(=O)N3[C@H]4c5cc(C)ccc5OC[C@@H]4[C@H](c4ccccc4)[C@]3(C)C2=O)cc1	.	.	.	.	-0.9	0.3	1	9	-2	-5.6
Cc1ccc(-c2nn(-c3ccccc3)cc2C(=O)NN2CCN(C)CC2)cc1	4.1	31	-7%	0	0.5	2.8	-3	1	0	3.2
CN1CCN(c2ccc(S(=O)(=O)N3CCCCC3)cn2)CC1	-3.2	7	-13%	-7	-1.1	.	-5	.	.	.
CC1CCC(NC(=O)CCCn2sc3ccccc3c2=O)CC1 (stereo not given)	-1.4	27	.	-7	-0.1	-0.7	1	-3	-5	-0.8
COc1cc(OC)c(C(=O)Nc2cccc3ccccc23)cc1OC	3.0	9	1%	15	-0.1	2.7	0	-1	0	-1.9
COc1cccc(Oc2cn[nH]c2-c2ccc(O)cc2O)c1	-0.1	18	3%	-9	-0.7	.	3	.	.	.
CCCCn1c(SCC(=O)N2CC(=O)Nc3ccccc32)nnc1-c1ccoc1C	-5.1	3	5%	11	2.3	.	-3	.	.	.
CCN(C[C@H]1N[C@@](C)(C(=O)OC)[C@H]2C(=O)N(C)C(=O)[C@@H]12)S(=O)(=O)c1ccc(F)cc1	.	.	-2%	.	0.5	0.2	0	12	16	-0.4
CCNc1nc(NCC)nc(OCCNS(=O)(=O)c2cc(C)ccc2C)n1	0.2	-10	67%	-7	0.6	.	-2	.	.	.
N/C(=N\O)c1ccccc1-n1cccc1	-2.7	2	16%	-6	-0.3	-0.3	-5	10	6	16
O=C(CN1C(=O)CCSc2ccccc21)Nc1ccccc1	-0.3	-14	?	11	-0.5	.	0	.	.	.
COCCCn1c2nc3ccccc3nc2c2c(=O)n(-c3ccccc3OC)cnc21	2.1	16	4%	-6	-0.5	.	3	.	.	.

Four entries already listed, arranged by length of the SMILES, ascending.
SMILES	RanGTP-Impb inh	T cruzi inh	Vif A3G	Calb FLC	Bfl-1 A1 inh	MLL AF4-AF9 inh	Beta cell apopt	Ecoli rRNA inh	Ecoli rRNA inh OD600	Ecoli rRNA inh RFP
Cc1ccc(S(=O)(=O)NC(=O)c2ccccc2C)cc1	0.0	-19	-5%	1	0.2	-0.5	-3	13	10	-6.3
COc1cccc(Oc2cn[nH]c2-c2ccc(O)cc2O)c1	-0.1	18	3%	-9	-0.7	.	3	.	.	.
COc1cc(OC)c(C(=O)Nc2cccc3ccccc23)cc1OC	3.0	9	1%	15	-0.1	2.7	0	-1	0	-1.9
CCN(C[C@H]1N[C@@](C)(C(=O)OC)[C@H]2C(=O)N(C)C(=O)[C@@H]12)S(=O)(=O)c1ccc(F)cc1	.	.	-2%	.	0.5	0.2	0	12	16	-0.4

(more compounds)
SMILES	RanGTP-Impb inh	T cruzi inh	Vif A3G	Calb FLC	Bfl-1 A1 inh	MLL AF4-AF9 inh	Beta cell apopt	Ecoli rRNA inh	Ecoli rRNA inh OD600	Ecoli rRNA inh RFP
CCCc1cc(=O)n2[nH]c(C)nc2n1	23*	2	2%	-17	0.5	.	2	.	.	.
Cc1ccc(S(=O)(=O)NCCNC(=O)CN2CCOCC2)cc1	-1.4	-6	.	0	-0.6	?	.	10	16	1.3
C[C@@H]1CN([C@@H](C)CO)C(=O)Cc2cc(NC(=O)Nc3ccc(C(F)(F)F)cc3)ccc2O[C@@H]1CN(C)S(=O)(=O)c1ccc(Cl)cc1	.	.	.	.	0.7	5.1	35	2&5	0&25	0.3&-2.1
Oc1ccc(C23CC4CC(CC(C4)C2)C3)cc1O	-1.2	2	26%	-15	0.6	19	6	-6	-2	2.2
CCCCc1n(CC(=O)c2ccc(Cl)cc2)c2ccccc2[n+]1C	1.9	40	23%	-57	2.0	1.1	4	-19*	-5.9*	4.2*
Cc1csc(N/N=C/c2c(F)cccc2Cl)n1	2.7	12	-3%	-31	-0.7	6.0	2	-9	-7	-3.6
CCN(CC)S(=O)(=O)c1ccc(NC(=O)c2ccccc2N(C)S(C)(=O)=O)cc1	-1.2	-18	?	1	-0.6	.	-1	.	.	.
O=C(Nc1ccc(Cl)cc1)Nc1ccc(N2CCC(C(F)(F)F)CC2)nc1	2.1	10	88%	10	-0.1	2.7	-1	-9	-6	3.0
O=C(CCN1C(=O)/C(=C\c2ccccc2)SC1=S)N1CCCCC1	5.3	-13	.	16	0.3	0.9	-96	2	-1	-1.2
Cc1cc(C(=O)N/N=C/c2cc(Cl)cc([N+](=O)[O-])c2O)n[nH]1	-5.5	25	3%	3	-0.2	3.4	11	-3	5	-2.4
COc1cc2c(cc1OC)-c1nnc(-c3cccs3)n1C1(CCCC1)C2	2.5	17	-1%	-13	1.2	.	8	.	.	.
Cc1ccc(/C(O)=C/c2nc3cc(C)ccc3oc2=O)cc1	0.0	-44	?	-7	-0.6	1.0	-4	1	5	3.8
Cc1occc1C(=O)Nc1cccc(C(=O)NCc2ccccc2)c1	1.9	-1	2%	-3	0.2	.	3	.	.	.
CN1C(=O)COc2ccc(C(=O)c3oc4ccccc4c3-c3cnc4c(c3)COc3ccccc3-4)cc21	-0.1	38	-8%	0	.	.	.	.	.	.
O=C(OCc1nc2ccccc2s1)[C@@H]1CCCN1S(=O)(=O)c1ccccc1F	-1.8	5	-2%	27	1.0	.	-13	.	.	.
CC(=O)Nc1ccc(N/C=C2/CCCC2=O)cc1	25	-18	?	-2	-0.3	-3.0	-3	-3	5	-1.3
Cc1nn(CC2CC2)c(=O)n1-c1ccc(F)cc1	-4.0	-10	-4%	-40	0.1	-3.8	-1	16	13	2.3
O=C(NCCN1CCOCC1)c1cccnc1SCc1ccccc1Cl	3.9	12	-12%	4	1.9	-2.5	1	6	4	1.0
O=C1CC(c2ccccc2)CC(O)=C1C=NCCCN1CCOCC1 (stereo not given)	8.6	3	17%	-3	-0.2	.	4	.	.	.
O=C(CSc1nc(-c2cccs2)cc(C(F)(F)F)n1)Nc1cc(OCC(F)(F)F)cc([N+](=O)[O-])c1	1.6	7	24%	-2	-0.3	-3.3	.	1	1	-6.0
CCOC(=O)C1CCN(C(=O)C2CCN(S(=O)(=O)c3c(C)noc3C)CC2)CC1	-1.4	-18	-2%	3	0.1	.	-2	.	.	.
O=C(CCCN1C(=O)c2ccccc2C1=O)NC1CCCCCC1	0.6	4	-3%	9	?	.	-1	.	.	.
CC1(C)Nc2ccc(O)cc2-c2c1ssc2=S	-0.2	-33	?	-3	-0.4	.	-5	.	.	.
CCOc1ccc(Br)cc1S(=O)(=O)NC1=NCCCCC1	.	.	-4%	.	-2.1	6.4	-12	2	4	0.8
COc1cccc(/C=C/C(=O)N2CC(C)OC(C)C2)c1OC (stereo not given)	1.2	-6	.	2	-0.3	-2.0	5	5	7	0.4
NNC(=O)C(=O)Nc1ccc(O)cc1	-0.9	3	.	-2	0.7	-6.6	0	7	-7	-3.0
Cc1nn(-c2ccc(Cl)nn2)c(=O)c2ccccc12	?	-14	2%	4	-0.7	-1.1	0	-1	6	-1.2
CC(C)Cc1cc(C(=O)Nc2ccc(Br)cc2)no1	-1.7	10	-3%	-3	-1.3	0.9	-7	-1	-1	-5.8
COc1cc(/C=C/C(=O)OC(C)C(=O)Nc2c(C)n(C)n(-c3ccccc3)c2=O)ccc1O (stereo not given)	.	2	.	-2	-0.3	-0.6	-12	7	6	4.0
O=[N+]([O-])c1ccc(O)c(/C=N/n2c(-c3ccccc3)n[nH]c2=S)c1	0.1	-7	.	2	0.3	-3.1	-11	8	14	0.9
O=c1c2ccccc2nc(-c2ccccc2Cl)n1O	-1.8	0	0%	18	-1.7	0.3	-2	8	10	-4.0
CCCCCc1cc(=O)oc2c(C(CCN3CCCCC3)c3ccc(OC)cc3)c(OC)cc(OC)c12 (stereo not given)	2.3	42	.	11	2.8	19	47	-56	-78	-19
CC(=O)c1ccc(NC(=O)c2cc(CC(C)C)nc3ccccc23)cc1	1.4	6	.	-6	0.7	-7.2	0	6	3	-0.6
CCOc1ccccc1OCCCOc1ccc(C)cc1Br	3.4	1	9%	-7	0.3	.	4	.	.	.
Cc1cccc(N(C(=O)Cc2cccs2)C(C(=O)NC2CCCC2)c2ccncc2)c1 (stereo not given)	0.3	15	.	5	1.0	-1.1	-1	4	14	0.9
COc1cccc(-c2nc(S(=O)(=O)c3ccccc3)c(N3CCOCC3)o2)c1	2.2	20	4%	14	0.6	-18	-1	9	2	-5.3
COc1cc(SC)ccc1C(=O)NCCOc1c(C)cc(C)cc1C	-0.8	27	1%	8	0.5	-8.6	3	-2	4	-2.6
Cc1ccc(C)c(OCCC(=O)Nc2ccccc2C(=O)NC2CC2)c1	.	.	58%	.	-1.2	1.0	-3	.	.	.
Cc1c(/C=N/NC(=O)COc2ccccc2[N+](=O)[O-])c2ccccc2n1C	-1.5	8	?	?	-0.5	-2.4	-8	.	.	.
CCC(=O)Nc1c(S(=O)(=O)c2ccccc2)c2nc3ccccc3nc2n1Cc1ccccc1	22*	11	-4%	-7	-0.4	-4.3	1	-3	15	7.5
